Biofilm kill mix = mixture kills Candida albicans biofilm cells; C. albicans biofilm persisters + clotrimazole, fluorescence viability; primary screen in compound mixtures of four per well; inhibition, % at 7.6 µM; hit rate 0.02% among 120,000; AID 1242;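 active = inhibition above 30.3% in the primary screen of four-compound pools, then above 30% when the compound was retested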;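 note: compounds exposed to preformed 24 h biofilms for 48 h; the number belongs to the whole pool; some results filed as inactive read as strong as hits; inactives centre near 12; 0% = biofilm with clotrimazole alone and 100% = kill control; retested singly at about 60 µM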
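Incubation: 24 h biofilm formation, then 48 h compound exposure, 37 °C | Material: C. albicans biofilms | Buffer or medium: RPMI/MOPS medium, pH 7.0 | Measured by: 2-h Alamar Blue fluorescence, 535/590 nm excitation/emission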
* = called active by the depositor. This is a subset; count on the stated rates, not on these rows.

mol | Biofilm kill mix
O=[N+]([O-])c1cc(Cl)ccc1N1CCCCC1 | -2.0
Cc1cc(=O)n(C)c(=O)n1CCCCCCN1CCCC1 | 8.9
S=c1nc[nH]c2c1ncn2C1CCCC1 | 26.6
CC(C)CCn1c(COc2ccccc2)n[nH]c1=S | -7.5
Cc1occc1C(=O)N/N=C/C=C/c1ccccc1[N+](=O)[O-] | 15.0
CCOC(=O)C1(Cc2ccccc2C(F)(F)F)CCN(C(=O)c2cc(C)n(C)n2)CC1 | 0.8
Cc1ccc(S(=O)(=O)N2CCOCC2)cc1N/N=C(\C#N)c1nc2ccccc2[nH]1 | 14.5
COc1ccc2cc(/C(C)=N/NC(=O)c3cc(-c4cccnc4)nc4ccccc34)ccc2c1 | 7.0
COc1ccccc1CNC(=S)NC1CCCCC1 | 21.6
CC1CCCCN1C(=O)CSc1nc(-c2ccccc2)cn1N (stereo unspecified) | 13.1
Cc1cccc2c1N(CCOc1ccccc1Cl)C(=O)C2=O | 12.1
CC1=NN(c2ccccc2)C(=O)/C1=C\c1cc(C)n(-c2ccccc2)c1C | 11.0
Cn1c(CNC(=O)c2ccccc2F)nnc1SCC(=O)N1CCN(c2ccccc2)CC1 | 17.6
CC(/C=C/c1ccccc1)=N\NC(=O)C1CC1(C)c1ccccc1 (stereo unspecified) | 17.8
COc1ccc(C(=O)Nc2ccccc2C(=O)NC(Cc2ccc(O)cc2)C(=O)NNC(=O)c2ccncc2)cc1 (stereo unspecified) | 6.4
S=C(CN1CCCC1=S)NCCc1ccccc1 | 19.6
O=C(Nc1cccc2ccccc12)c1cnsn1 | 16.8
NS(=O)(=O)c1cnccc1Nc1ccc(Cl)cc1 | 19.2
NC(=O)N=Nc1c(O)[nH]c2ccc([N+](=O)[O-])cc12 | 11.7
COc1ccc(/C=N/NC(=O)c2cccnc2)cc1COc1ccc([N+](=O)[O-])cc1 | 4.7

Filtered by structure, the compounds so far containing fluorine.
mol | Biofilm kill mix
CCOC(=O)C1(Cc2ccccc2C(F)(F)F)CCN(C(=O)c2cc(C)n(C)n2)CC1 | 0.8
Cn1c(CNC(=O)c2ccccc2F)nnc1SCC(=O)N1CCN(c2ccccc2)CC1 | 17.6

Four of these compounds, set out differently:
O=C(Nc1cccc2ccccc12)c1cnsn1
  Biofilm kill mix: 16.8

NS(=O)(=O)c1cnccc1Nc1ccc(Cl)cc1
  Biofilm kill mix: 19.2

NC(=O)N=Nc1c(O)[nH]c2ccc([N+](=O)[O-])cc12
  Biofilm kill mix: 11.7

COc1ccc(/C=N/NC(=O)c2cccnc2)cc1COc1ccc([N+](=O)[O-])cc1
  Biofilm kill mix: 4.7

3 structures from above, sorted by number of heavy atoms, largest number first:
mol | Biofilm kill mix
COc1ccc(C(=O)Nc2ccccc2C(=O)NC(Cc2ccc(O)cc2)C(=O)NNC(=O)c2ccncc2)cc1 (stereo unspecified) | 6.4
CC1=NN(c2ccccc2)C(=O)/C1=C\c1cc(C)n(-c2ccccc2)c1C | 11.0
NS(=O)(=O)c1cnccc1Nc1ccc(Cl)cc1 | 19.2

Screening results deposited in PubChem by PCMD.
